Screens (PubChem BioAssay)
TRPV1 potentiator: potentiators of human vanilloid receptor 1 (TRPV1); TRPV1-expressing cells, Fluo-8 calcium influx, capsaicin EC20 potentiation; host cell line not named in the record; control for the full effect not named in the record; potentiation, % at 8.33 µM; hit rate 0.02% among 320,000; AID 540277; active means potentiation above 80%; inconclusive means 30% to 80%; inactive means below 30%; further: 0% is about no effect
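Fluo-8 calcium influx in TRPV1-expressing cells, kinetic read (ex 480/em 520 nm). Compound added and read 3 min for agonist activity, followed by capsaicin at EC20 final and 2 min further read for enhancement.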
TRPML1 agonist: activates the human TRPML1 channel | activation, % (no concentration beside the values) | Q9GZU1 | hit rate 0.12% among 410,000 | AID 624414 | TRPML1-expressing cells, Ca2+ dye fluorescence, FDSS; host cell line not named in the record; reference of the full effect not given here; in the data active = activation above about 50%; inconclusive = about 30% to 50%; inactive = below about 30%; further: 0% is about no effect; the text of the record puts the active cut at 80%
Target sequence (Q9GZU1 whole entry, looked up): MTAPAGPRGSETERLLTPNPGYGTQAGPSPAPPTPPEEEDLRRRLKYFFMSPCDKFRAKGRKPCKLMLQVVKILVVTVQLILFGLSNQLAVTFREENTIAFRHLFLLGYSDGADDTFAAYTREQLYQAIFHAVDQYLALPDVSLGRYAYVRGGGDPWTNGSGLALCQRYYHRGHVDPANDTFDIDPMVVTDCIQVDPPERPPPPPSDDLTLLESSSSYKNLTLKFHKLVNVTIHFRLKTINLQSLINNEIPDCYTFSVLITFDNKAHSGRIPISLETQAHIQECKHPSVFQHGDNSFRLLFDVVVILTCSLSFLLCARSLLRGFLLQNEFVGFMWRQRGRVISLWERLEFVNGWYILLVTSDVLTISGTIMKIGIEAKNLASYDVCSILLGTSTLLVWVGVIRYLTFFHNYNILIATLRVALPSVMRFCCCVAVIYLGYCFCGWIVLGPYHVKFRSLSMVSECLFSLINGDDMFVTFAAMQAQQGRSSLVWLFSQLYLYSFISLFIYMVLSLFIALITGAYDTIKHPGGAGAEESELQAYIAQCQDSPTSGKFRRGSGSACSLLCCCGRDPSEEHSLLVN
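Tet-induced TRPML1-DL cells, 1,500 per well, cultured overnight, were loaded with a no-wash Ca2+ dye for 45–90 min. Calcium fluorescence was recorded on the FDSS for 110 s after compound addition, before the EC80 agonist (4 uM 54-4) was added.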
CtBP-E1A blk: CtBP/E1A binding inhibition. AlphaScreen GST-E1A/His-CtBP binding, 1536-well; hits give low values; control for the full effect not named in the record. activity change, % (test concentration not listed). hit rate 0.49% among 340,000. AID 651724; in the data active means activity change below about -65%; inconclusive means about -30% to -65%; inactive means above about -30%; further: on the % scale 0 is the no-effect control and ±100 the full control effect; compound concentration not given in the record
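In 5 uL wells, 23 nL compound meets equimolar GST-E1A and His-CtBP (5X stock 125 nM each) for 2 h, 37 °C. Beads (5X, 50 ug/mL) then 1 h, 37 °C, dark.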
TRPML1 blocker: human mucolipin-1 channel inhibition | hit rate 0.02% among 390,000 | AID 624415 | Q9GZU1 | TRPML1-inducible cells, Ca2+ dye fluorescence, FDSS; hits give low values; inhibition of EC80 agonist-evoked calcium signal | activity change, negative = inhibition, % (concentration not given with the values); in the data active means activity change below about -50%; inconclusive means about -30% to -50%; inactive means above about -30%;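 further: stimulus is agonist 54-4 at its EC80 concentration; on the % scale 0 is the no-effect control and ±100 the full control effect; compound concentration not given in the record; the text of the record puts the active cut at -80%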
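Calcium fluorescence in TRPML1-DL cells induced overnight with Tet: a 110 s read after compound pin addition, then a 110 s antagonist read after challenge with 54-4 at 4 uM final (EC80).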
Six1-Eya2 inh: Six1/Eya2 interaction inhibition; AlphaScreen GST-Six1/His-Eya2 binding, biochemical; hits give low values; control for the full effect not named in the record; AID 651725; activity change, % (no concentration beside the values); Q15475+O00167; hit rate 0.56% among 360,000; in the data active = activity change below about -65%; inconclusive = about -30% to -65%; inactive = above about -30%; further: on the % scale 0 is the no-effect control and ±100 the full control effect; compound concentration not given in the record
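Homogeneous AlphaScreen proximity assay pairing GST-Six1 with His-tagged Eya2 (added as 5X mix: 250 nM and 500 nM) in 50 mM Tris pH 8.0, 300 mM NaCl, 1 mM TCEP. Glutathione donor and nickel acceptor beads; 1 h, 37 °C, dark.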
D2 PAM: potentiates the human D2 dopamine receptor allosterically. P14416. DiscoveRx D2 beta-arrestin cells, luminescence, 90 min; 100% = 57 uM dopamine signal. potentiation, % (concentration not given with the values). hit rate 0.23% among 360,000; active = potentiation of 50% or more; inconclusive = 30% to 50%; inactive = 30% or less;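 further: compound concentration not given in the record; tested on top of an EC20 dose of dopamine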
Target sequence (P14416 whole entry, looked up): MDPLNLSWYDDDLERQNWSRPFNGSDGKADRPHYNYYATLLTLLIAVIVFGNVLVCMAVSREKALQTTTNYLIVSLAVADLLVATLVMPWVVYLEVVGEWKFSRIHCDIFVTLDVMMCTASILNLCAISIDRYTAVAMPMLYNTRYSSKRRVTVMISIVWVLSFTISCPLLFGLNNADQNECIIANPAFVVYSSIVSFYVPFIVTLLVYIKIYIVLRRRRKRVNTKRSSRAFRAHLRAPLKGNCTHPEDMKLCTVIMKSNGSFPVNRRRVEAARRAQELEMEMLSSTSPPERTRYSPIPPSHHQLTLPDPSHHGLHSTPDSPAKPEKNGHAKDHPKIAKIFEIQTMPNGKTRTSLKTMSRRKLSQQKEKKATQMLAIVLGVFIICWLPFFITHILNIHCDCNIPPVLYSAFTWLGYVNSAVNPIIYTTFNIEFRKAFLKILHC
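D2 cells co-treated with compound plus 50 nM dopamine (EC20) for 90 min at 37 deg C to detect potentiation. Beta-arrestin recruitment was read as enzyme-fragment luminescence after 1 h at ambient temperature. Full response was set by 57 uM dopamine.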
* marks the source's active call; other numbers are inactive results; ? = inconclusive; nt = not tested or not shown; & = joins results of further samples. An unsorted share of the library; 0.95% or so of the library scored in one or more.

Structure | TRPV1 potentiator | TRPML1 agonist | CtBP-E1A blk | TRPML1 blocker | Six1-Eya2 inh | D2 PAM
CCc1ccc(NS(=O)(=O)c2c(C)nc3sc(CC)nn3c2=O)cc1 | 16 | -0.6&1.6 | 7 | 4&-4 | -4 | -2
O=S1(=O)CCC(NC(=S)N2CCCCC2)C1 (stereo not drawn) | -1 | -0.3 | 2 | -18 | 3 | -2
CCOC(=O)c1cc(C#N)c(N)nc1C | 3 | -0.5 | 5 | 1 | 0 | 7
CCCCC(=O)Nc1nc2ccc(C(=O)OC)cc2s1 | -8 | 1.1 | 1 | -8 | -7 | -2
O=C(O)CSCC(=O)N1CCN(c2ncnc3scc(-c4ccccc4)c23)CC1 | -2 | 0.2 | nt | -6 | 12 | -3
O=C1CCc2cc(S(=O)(=O)NCc3ccc(F)cc3)cc3c2N1CC3 | 6 | -0.3&-0.1 | 2 | -7&-28 | -5 | -4
CCOc1ccc(NC2=C(Cl)C(=O)N(Cc3ccccc3)C2=O)cc1 | -3 | 1.6 | -20 | 42 | -28 | 1
Cc1cc(=O)oc2cc(OCCCC[n+]3ccccc3)ccc12 | -4 | 0.2 | -7 | -10 | 10 | -5
O=C(CCN1C(=O)S/C(=C\c2ccccc2)C1=O)Nc1ccc(O)cc1C(=O)O | 23 | 2.6 | -20 | 41 | -10 | 5
Cc1ccc(C(=O)OCC(=O)N2C(C)CCCC2C)cc1S(=O)(=O)N1CCCCC1 (stereo not drawn) | 1 | 1.0 | 11 | 33 | 0 | -11
CN(CC(=O)Nc1ccc(N2CCOCC2)cc1)CC(=O)Nc1ccccc1C#N | -1 | 0.5 | -1 | -2 | 7 | -2
Cc1ccc(-c2[nH]ncc2C(=O)c2cccc(F)c2)c(O)c1 | -13 | 0.4 | 0 | 2 | 4 | -5
CCOC(=O)C1=C(COC(=O)c2nc(Cl)ccc2Cl)NC(=O)NC1C (stereo not drawn) | 20 | 0.6 | 3 | -10 | 3 | 14
COc1ccc2nc(SCC(=O)Nc3cc(C)on3)c(C#N)cc2c1 | -2 | 1.2 | -3 | 28 | 21 | -4
O=[N+]([O-])c1cccc(Oc2cnccn2)c1 | 12 | 0.4 | 1 | 13 | 13 | 1
Brc1ccc(C2=Nc3cccc4cccc(c34)N2)o1 | -1 | 0.3 | 0 | 20 | 7 | 84*
CCOc1ccc(CCNC(=O)c2cc3sccc3n2C)cc1OCC | ? | 0.5 | ? | -3 | -20 | 14
O=C(Cc1ccccc1)NCC(=O)OCC(=O)c1ccc([N+](=O)[O-])cc1 | 7 | -0.9 | 13 | 7 | 8 | ?
CCOc1cc(N2CCOCC2)c(OCC)cc1NC(=O)c1ccccc1C | -2 | -0.6 | 3 | 0 | 2 | 8
Cc1ccc(SCCC(=O)Nc2cccnc2)cc1 | -16 | -0.6 | 4 | 0 | 3 | -5
CC(=O)NC(=S)Nc1ccccc1N1CCN(C(=O)c2ccccc2)CC1 | -16 | 0.0 | -6 | 1 | -9 | 3
CCOC(=O)c1ccc(NC(=O)C2CCCO2)cc1 (stereo not drawn) | -16 | 0.2 | 7 | ? | 1 | -2
CC(=O)c1cc2c(cc1NC(=O)c1c(-c3ccccc3)noc1C)OCO2 | 0 | 1.9 | -2 | 0 | -5 | -9
C=CCNC(=O)C(=O)NCC(c1ccc2c(c1)OCO2)N1CCOCC1 (stereo not drawn) | 6 | -0.1 | 5 | 9 | -2 | -2
O=C(CN(C(=O)CNC(=O)c1ccco1)c1ccccc1F)NC1CCCCC1 | ? | -0.3 | 7 | -8 | 3 | -11
O=C1CCCc2c1nn(-c1ccccc1)[n+]2[O-] | -5 | -0.4 | -3 | 9 | 2 | -7
S=c1[nH]nc(COc2ccccc2)n1/N=C/c1ccc(Br)cc1 | -20 | -0.3 | nt | ? | -16 | -11
Cc1ccc(S(=O)(=O)NN2C(=O)c3ccccc3NC2c2cccc(O)c2)cc1 (stereo not drawn) | -7 | -0.1 | -5 | -13 | 11 | 2
C[C@@H]1CN([C@H](C)CO)C(=O)CCCn2nncc2CO[C@H]1CN(C)Cc1cccnc1 | nt | 0.5 | -24 | 17 | 4 | -1
Cc1ccc(-n2c(SCC(=O)NCC3CCCO3)nc3n[nH]c(C)c3c2=N)cc1Cl (stereo not drawn) | 7 | 1.1 | -20 | -5 | -15 | -4
Cc1ccc(OCCC(=O)OCC(=O)N2CCN(S(=O)(=O)c3ccc(C)cc3C)CC2)cc1 | 24 | 2.1 | 2 | 11 | 1 | 9
COc1ccc(C=NNC(=S)Nc2ccc(F)cc2)cc1OC | nt | 2.2 | -13 | 8 | -9 | -6
Cc1nnc(C)c2c(C)n(-c3ccc4ncccc4c3)c(C)c12 | 2 | -0.4 | -1 | -2 | -2 | -3
COc1cc(-c2cc(C(=O)Nc3ccccc3N3CCOCC3)c3ccccc3n2)cc(OC)c1OC | 0 | 0.6 | -1 | 61 | -6 | 24
Cc1ccc(-c2cc(-c3nnc(SCC(=O)NCC(C)C)n3N)c3ccccc3n2)cc1 | -1 | -0.3 | -4 | 5 | -10 | 19
CCOC(=O)c1ccn(CSc2c(F)c(F)cc(F)c2F)n1 | -2 | 0.4 | 3 | 3 | -2 | -1
Nc1ncnc(Sc2ccccc2)c1[N+](=O)[O-] | 5 | 3.6 | -3 | 12 | 1 | -10
COc1cc(S(=O)(=O)Nc2ccc3c(c2)C(=O)N(C)C3=O)ccc1NC(C)=O | nt | 1.6 | 3 | 4 | 0 | 1
COc1cccc(CN(C(=O)c2cccs2)C2CCS(=O)(=O)C2)c1 (stereo not drawn) | 9 | -0.3 | 20 | -7 | 11 | -6
CC1(C(=O)Nc2cccnc2)Cc2c(-c3cccc(C(F)(F)F)c3)ccnc2O1 (stereo not drawn) | nt | -1.0 | -5 | nt | -3 | -14
O=C(NCc1ccc2c(c1)OCO2)Nc1cccc(Cl)c1 | 0 | 1.4 | -4 | 3 | 1 | 0
Cc1c(C)c2c(OCC(=O)NCCCO)cc3c(c2oc1=O)CCC(C)(C)O3 | -11 | 1.2 | -8 | -8 | -14 | 0
CCOC(=O)CN(C#N)c1nc(N(C)C)nc(N(C)C)n1 | -19 | 0.1 | 2 | 4 | -3 | -4
O=C(Cc1cccc2ccccc12)Nc1nc2ccccc2[nH]1 | 2 | 2.7 | 42 | 12 | 27 | 6
CCn1c(=O)c2ccccc2n(CC(=O)N2CCCc3ccccc32)c1=O | 4 | -0.1 | nt | 14 | 11 | 0
C1=Nc2c(Nc3ccccc3)ncnc2Oc2ccccc21 | -9 | 2.8 | -20 | -4 | -10 | 2
CC1CC(=O)Nc2ccccc2N1C(=O)Cn1cnc2ccccc2c1=O (stereo not drawn) | 1 | -0.3 | nt | 1 | 2 | 3
Cc1cc(C)c(NC(=S)N2CCC(N(C)CC3CCCO3)CC2)c(C)c1 (stereo not drawn) | 7 | 0.1 | 2 | 6 | -3 | -9
CSC1=C(C#N)C(C)C2=C(CC(C)(C)CC2=O)N1 (stereo not drawn) | -12 | 0.3 | 11 | 0 | 10 | -40
CCCNC(=O)C1CN(S(=O)(=O)c2ccccc2)CCN1S(=O)(=O)c1ccccc1 (stereo not drawn) | 5 | -0.5 | 5 | 4 | -1 | -10
Cc1cccn2c(=O)nc(SCC(=O)N3CC(C)OC(C)C3)nc12 (stereo not drawn) | 10 | 1.7 | 4 | 43 | -15 | -24
COc1ccc2nc(N3CCN(C(=O)c4ccc5ncsc5c4)CC3)sc2c1 | -2 | 0.4 | -8 | 5 | -1 | 3
COc1ccccc1C1CCN(Cc2ccc(C)cc2)CC1 | 15 | -1.5 | -7 | 7 | -9 | -14
CCC(=O)N1COC[C@@H]1Cc1ccccc1 | 5 | 0.0 | -4 | -16 | 9 | -12
Cc1cccc2nc(-c3cccc(NC(=O)Cc4ccccc4)c3)cn12 | ? | 0.3 | -4 | 4 | -12 | 9
COc1ccc(S(=O)(=O)N(C)c2nc3ccccc3n3c(CC(C)C)nnc23)cc1 | -4 | 3.7 | 0 | 4 | 16 | 1

More results follow:
Structure | TRPV1 potentiator | TRPML1 agonist | CtBP-E1A blk | TRPML1 blocker | Six1-Eya2 inh | D2 PAM
O=C(c1cccc(COc2cccc3ccccc23)c1)N1CCCC1 | 12 | 1.6 | 4 | 23 | 0 | 7
CCCc1ccc(OC(=O)c2ccc(O)cc2Cl)cc1 | -35 | 1.2 | 10 | -15 | 6 | -5
C=C(C)CNC(=S)NNC(=O)CCn1c2ccc(Cl)cc2c2cc(Cl)ccc21 | -9 | 0.5 | -15 | -17 | -3 | -26
CCCCN=C1NC(=O)C(CC(=O)Nc2ccc(Cl)cc2)S1 (stereo not drawn) | 0 | 0.4 | 3 | 17 | 4 | -26
CCN(CC)c1nc(N(CC)CC)[nH]c(=O)n1 | nt | -0.5 | -1 | -7 | -2 | -1
COC(=O)Nc1ccc(S(=O)(=O)N(CCO)CC(F)(F)C(F)F)cc1 | 19 | -0.5 | 3 | 2 | -2 | -6

11 consecutive compounds from above, quoted:
Structure | TRPV1 potentiator | TRPML1 agonist | CtBP-E1A blk | TRPML1 blocker | Six1-Eya2 inh | D2 PAM
CSC1=C(C#N)C(C)C2=C(CC(C)(C)CC2=O)N1 (stereo not drawn) | -12 | 0.3 | 11 | 0 | 10 | -40
CCCNC(=O)C1CN(S(=O)(=O)c2ccccc2)CCN1S(=O)(=O)c1ccccc1 (stereo not drawn) | 5 | -0.5 | 5 | 4 | -1 | -10
Cc1cccn2c(=O)nc(SCC(=O)N3CC(C)OC(C)C3)nc12 (stereo not drawn) | 10 | 1.7 | 4 | 43 | -15 | -24
COc1ccc2nc(N3CCN(C(=O)c4ccc5ncsc5c4)CC3)sc2c1 | -2 | 0.4 | -8 | 5 | -1 | 3
COc1ccccc1C1CCN(Cc2ccc(C)cc2)CC1 | 15 | -1.5 | -7 | 7 | -9 | -14
CCC(=O)N1COC[C@@H]1Cc1ccccc1 | 5 | 0.0 | -4 | -16 | 9 | -12
Cc1cccc2nc(-c3cccc(NC(=O)Cc4ccccc4)c3)cn12 | ? | 0.3 | -4 | 4 | -12 | 9
COc1ccc(S(=O)(=O)N(C)c2nc3ccccc3n3c(CC(C)C)nnc23)cc1 | -4 | 3.7 | 0 | 4 | 16 | 1
O=C(c1cccc(COc2cccc3ccccc23)c1)N1CCCC1 | 12 | 1.6 | 4 | 23 | 0 | 7
CCCc1ccc(OC(=O)c2ccc(O)cc2Cl)cc1 | -35 | 1.2 | 10 | -15 | 6 | -5
C=C(C)CNC(=S)NNC(=O)CCn1c2ccc(Cl)cc2c2cc(Cl)ccc21 | -9 | 0.5 | -15 | -17 | -3 | -26
